High-throughput results: PubChem, Broad Institute
HIV Env fusion = inhibitors of HIV Env-mediated cell fusion; HeLa-JRFL Env/CEM21 cell fusion, luciferase; inhibition, % at 12.3 µM; 360,000 compounds, 1.1% hits; AID 651610;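 active means mean replicate inhibition score of at least 50 and every replicate individually at or above 50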;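 further: 0% = plate neutral controls and 100% = maraviroc near 300 nM; one replicate is shown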
Active calls of the source: *; [ ] = remark or other dose. Some of the compounds tested. The share of hits here may be higher or lower than overall.

O=C(C[C@@H]1CC[C@H]2[C@@H](COC[C@@H](O)CN2Cc2ccc3c(c2)OCO3)O1)Nc1ccc(-c2ccccc2)cc1 was read as HIV Env fusion 19[16.7 µM].
For COc1ccc(NC(=O)N(C)C[C@H]2Oc3ccc(NS(=O)(=O)c4ccc(C)cc4)cc3C(=O)N([C@H](C)CO)C[C@@H]2C)cc1 the results were HIV Env fusion 6[16.7 µM].
`CC(C)(C)[S@@](=O)N1Cc2cc(C(=O)NCc3ccncc3)nc(-c3cccc(-c4ccc(C#N)cc4)c3)c2[C@H]1CCO` gave HIV Env fusion 6[16.7 µM].
Cc1ccc(OCCNC(=O)[C@@H](Cc2ccccc2)NC(=O)[C@H]2O[C@@H](n3ccc(=O)[nH]c3=O)[C@H](O)[C@@H]2O)cc1C was read as HIV Env fusion 17.
`CCCCCCC12C(=Cc3cc(C)ccc31)c1ccccc1C(CC(=O)NCc1ccccc1)N2C(=O)OC` (stereo not drawn) gave HIV Env fusion 17.
`CO[C@H]1CC[C@H]2CCN(C)C(=O)[C@@H](C)CN(C)C(=O)c3cc(C#N)ccc3OC[C@H]1O2` gave HIV Env fusion 4[16.7 µM].
`CCCNC(=O)N1C[C@H](O)COC[C@@H]2O[C@@H](CC(=O)N3CCN(C)CC3)CC[C@H]21` gave HIV Env fusion -13[16.7 µM].
O=C(C[C@H]1CC[C@@H](NC(=O)Nc2ccc(C(F)(F)F)cc2)[C@H](CO)O1)NCc1cc(F)cc(F)c1 was read as HIV Env fusion -9[16.7 µM].
`CO[C@@H]1CN(C)C(=O)c2ccc(NC(=O)C3CC3)cc2OC[C@@H](C)N(C(=O)c2ccccn2)C[C@@H]1C` gave HIV Env fusion 4[16.7 µM].
For CC=Cc1ccc2n(c1=O)C[C@H]1[C@H](CO)[C@@H](C(=O)NCC(F)(F)F)N(C(=O)c3cccnc3)[C@@H]21 (mixture of isomers) the results were HIV Env fusion 13[16.7 µM].
`CNC[C@H]1Oc2c(NC(=O)NC(C)C)cccc2C(=O)N([C@H](C)CO)C[C@@H]1C` gave HIV Env fusion 16[16.7 µM].
CN1c2ccc(C3=CCCCC3)cc2[C@@H]2[C@@H](CCN2C(=O)C2CCCCC2)[C@H]1CO was read as HIV Env fusion -16[16.7 µM].
For O=C(O)[C@@H]1[C@@H](CO)[C@@H]2Cn3c(cccc3=O)[C@@H]2N1C(=O)NC1CCCC1 the results were HIV Env fusion -3[16.7 µM].
For COc1cccc(C#Cc2ccc3c(c2)[C@H]2[C@H](CCN2C(=O)c2ccc4c(c2)OCO4)[C@H](CO)N3)c1 the results were HIV Env fusion -2[16.7 µM].
Screening C[C@@H]1CN([C@@H](C)CO)C(=O)c2cc(C3=CCCCC3)cnc2O[C@@H]1CN(C)S(C)(=O)=O returned HIV Env fusion 2[16.7 µM].
CS(=O)(=O)Nc1ccc2c(c1)[C@@H]1C[C@H](CC(=O)NCc3cc(F)ccc3F)O[C@@H](CO)[C@@H]1O2 was read as HIV Env fusion 18[16.7 µM].
For COc1ccccc1C#Cc1cnc2c(c1)C(=O)N([C@@H](C)CO)C[C@@H](C)[C@@H](CN(C)C(=O)c1ccc3c(c1)OCO3)O2 the results were HIV Env fusion 13[16.7 µM].
O=C(CN1CCOCC1)NCC[C@@H]1CC[C@H](NS(=O)(=O)c2ccc(F)cc2)[C@@H](CO)O1 was read as HIV Env fusion -3[16.7 µM].
Screening Cc1noc(C)c1NC(=O)Nc1cccc2c1O[C@@H](CN(C)S(=O)(=O)c1ccccc1)[C@H](C)CN([C@H](C)CO)C2=O returned HIV Env fusion -21[16.7 µM].
For CO[C@@H]1CN(C)C(=O)c2ccc(NS(=O)(=O)c3cn(C)cn3)cc2OC[C@H](C)NC[C@H]1C the results were HIV Env fusion 19[16.7 µM].
For COCCNC(=O)[C@@H]1[C@@H](CO)[C@@H]2Cn3c(cccc3=O)[C@H]1N2S(=O)(=O)c1ccccc1C the results were HIV Env fusion -1[16.7 µM].
COCC(=O)N1C[C@H](C)[C@H](OC)CN(C)C(=O)c2ccc(NC(=O)c3ccc(OC)cc3)cc2OC[C@@H]1C was read as HIV Env fusion 4[16.7 µM].
For CC(C)NC(=O)N(C)C[C@H]1OCCCC[C@@H](C)Oc2ccc(NC(=O)c3ccccc3)cc2C(=O)N([C@@H](C)CO)C[C@@H]1C the results were HIV Env fusion -33[16.7 µM].
`CCOC(=O)C1=C(C(=O)OCC)C2N(Cc3ccc(C#N)cc3)c3ccccc3[C@@]23C[C@@H](C(=O)OC)N(S(=O)(=O)c2cccs2)C3=N1` (stereo partly drawn) gave HIV Env fusion 11.

Structures shown so far that contain a CF3 group:
O=C(C[C@H]1CC[C@@H](NC(=O)Nc2ccc(C(F)(F)F)cc2)[C@H](CO)O1)NCc1cc(F)cc(F)c1 was read as HIV Env fusion -9[16.7 µM].
For CC=Cc1ccc2n(c1=O)C[C@H]1[C@H](CO)[C@@H](C(=O)NCC(F)(F)F)N(C(=O)c3cccnc3)[C@@H]21 (mixture of isomers) the results were HIV Env fusion 13[16.7 µM].

(next part)
Cc1ccccc1S(=O)(=O)N1C[C@H](O)COC[C@H]2O[C@@H](CC(=O)NCCc3ccccc3)CC[C@@H]21 was read as HIV Env fusion 14[16.7 µM].
For CCOC(=O)/C(=C\Nc1ccc(OCc2ccccc2)cc1)NC(=O)c1ccccc1 the results were HIV Env fusion -60.
`COc1ccccc1CNC(=O)C[C@H]1C[C@H]2c3cc(NC(=O)Nc4ccc(C(F)(F)F)cc4)ccc3O[C@H]2[C@H](CO)O1` gave HIV Env fusion 11[16.7 µM].
CC(C)NC(=O)Nc1ccc2c(c1)C(=O)N([C@H](C)CO)C[C@H](C)[C@H](CN(C)C(=O)Cc1ccccc1)OCCCC[C@@H](C)O2 was read as HIV Env fusion 5[16.7 µM].
For Nc1nc(-c2ccc(Cl)cc2)cs1 the results were HIV Env fusion -14.
C[C@H]1CN([C@@H](C)CO)C(=O)CCCn2nncc2CO[C@H]1CN(C)Cc1ccccc1 was read as HIV Env fusion -12[16.7 µM].
Screening C[C@@H]1CN([C@@H](C)CO)C(=O)c2cc(NS(=O)(=O)c3ccc(Cl)cc3)ccc2O[C@@H](C)CCCCO[C@H]1CN(C)Cc1ccncc1 returned HIV Env fusion -24[16.7 µM].
Screening C[C@@H]1CCCCO[C@@H](CN(C)CC2CC2)[C@H](C)CN([C@H](C)CO)C(=O)c2cc(NC(=O)c3ccccc3)ccc2O1 returned HIV Env fusion -9[16.7 µM].
Screening CC(C)[C@H](NC(=O)C1CC1)C(=O)N1CCC[C@H]1C(=O)NCc1ccccc1 returned HIV Env fusion -2.
For O=C(C[C@@H]1CC[C@H]2[C@@H](COC[C@@H](O)CN2C(=O)c2cccnc2)O1)NC1Cc2ccccc2C1 the results were HIV Env fusion 19[16.7 µM].
For Cn1cnc(S(=O)(=O)N2CC[C@H]3[C@H](CO)Nc4ccc(C#Cc5ccc(F)cc5)cc4[C@H]32)c1 the results were HIV Env fusion 22[16.7 µM].
CCCN(C)C[C@H]1Oc2ncc(-c3ccccc3)cc2C(=O)N([C@H](C)CO)C[C@H]1C was read as HIV Env fusion -12[16.7 µM].
`Cc1noc(C)c1NC(=O)Nc1ccc2c(c1)CC(=O)N([C@H](C)CO)C[C@@H](C)[C@@H](CN(C)Cc1ccc(-c3ccccc3)cc1)O2` gave HIV Env fusion -7[16.7 µM].
For C[C@@H]1CN([C@@H](C)CO)C(=O)c2ccccc2-c2ccccc2CO[C@@H]1CN(C)Cc1ccc2c(c1)OCO2 the results were HIV Env fusion 5[16.7 µM].
`O=C(C[C@@H]1C[C@@H]2c3cc(NS(=O)(=O)c4ccc(F)cc4)ccc3O[C@@H]2[C@H](CO)O1)NC1CCCCC1` gave HIV Env fusion -5[16.7 µM].
Screening O=C(C1CC1)N1CC2(C1)[C@H](c1ccccc1)[C@@H](CO)N2CC1CCCC1 returned HIV Env fusion 2[16.7 µM].
COc1ccc2c3c(n(C)c2c1)[C@H](CO)N(C(=O)c1ccc(F)cc1)CC31CCN(CC2CCOCC2)CC1 was read as HIV Env fusion 2[16.7 µM].
`CO[C@@H]1CN(C)C(=O)c2cc(NC(=O)Nc3c(C)noc3C)ccc2OC[C@@H](C)N(C)C[C@H]1C` gave HIV Env fusion 15[16.7 µM].
Screening COC(=O)C[C@H]1C[C@H]2c3cc(NC(=O)Nc4ccccc4)ccc3O[C@H]2[C@@H](CO)O1 returned HIV Env fusion -1[16.7 µM].
For CCCN(C)C[C@H]1OCCCC[C@@H](C)Oc2ccc(NS(C)(=O)=O)cc2C(=O)N([C@H](C)CO)C[C@@H]1C the results were HIV Env fusion 9[16.7 µM].
C[C@@H]1CCCCO[C@H](CN(C)C(=O)Nc2ccc(C(F)(F)F)cc2)[C@@H](C)CN([C@H](C)CO)C(=O)c2cc(N(C)C)ccc2O1 was read as HIV Env fusion 8[16.7 µM].
`CCOC(=O)Nc1cc(=O)c([N+](=O)[O-])c(N)[nH]1` gave HIV Env fusion 15.
C[C@H](NC(=O)N(C)C[C@@H]1OCc2ccccc2-c2c(n(C)c3ccccc23)C(=O)N([C@@H](C)CO)C[C@H]1C)c1ccccc1 was read as HIV Env fusion -4[16.7 µM].
`COC(=O)[C@H](CC(C)C)NS(=O)(=O)c1c(F)cccc1F` gave HIV Env fusion -18.
Screening O=C(C[C@@H]1CC[C@@H]2[C@H](COC[C@@H](O)CN2C(=O)Cc2ccccc2)O1)NC1Cc2ccccc2C1 returned HIV Env fusion 20[16.7 µM].
For C[C@H](CO)N1C[C@H](C)[C@@H](CN(C)C(=O)Cc2ccncc2)Oc2cc(C#CC3(O)CCCC3)ccc2S1(=O)=O the results were HIV Env fusion -9[16.7 µM].
Screening COC(=O)C[C@@H]1CC[C@H]2[C@H](COc3ccc(NS(=O)(=O)c4ccc(F)cc4)cc3C(=O)N2C)O1 returned HIV Env fusion 10[16.7 µM].
Screening CCn1c2c(n(C(C)=O)c1=O)C[C@@H](c1ccccc1)[C@@H](C)[C@@H](C(=O)N1CCCC1)C2 returned HIV Env fusion 4.
CO[C@@H]1CN(C)C(=O)c2cc(NS(=O)(=O)Cc3ccccc3)ccc2OC[C@@H](C)N(Cc2cccnc2)C[C@H]1C was read as HIV Env fusion -2[16.7 µM].
COc1cccc(S(=O)(=O)Nc2ccc3c(c2)[C@@H]2C[C@@H](CC(=O)NCc4ccc(Cl)cc4)O[C@H](CO)[C@@H]2O3)c1 was read as HIV Env fusion 47[16.7 µM].
`CCCNC(=O)N1C[C@@H](O)COC[C@@H]2O[C@@H](CC(=O)N[C@@H]3CCN(Cc4ccccc4)C3)CC[C@H]21` gave HIV Env fusion 4[16.7 µM].
Cc1noc(C)c1S(=O)(=O)N(C)C[C@@H]1Oc2ccc(NC(=O)Nc3ccccc3)cc2CC(=O)N([C@H](C)CO)C[C@H]1C was read as HIV Env fusion -8[16.7 µM].
For C[C@H]1CN([C@@H](C)CO)C(=O)c2cc(NS(=O)(=O)c3cn(C)cn3)ccc2O[C@H]1CN(C)S(=O)(=O)c1cn(C)cn1 the results were HIV Env fusion 23[16.7 µM].
O=C(C[C@H]1CC[C@@H]2[C@H](COC[C@@H](O)CN2Cc2ccc(Oc3ccccc3)cc2)O1)Nc1nccs1 was read as HIV Env fusion 27[16.7 µM].
For COc1ccc(N2C(=O)c3[nH]nc(-c4ccccc4)c3C2c2cccc(C(F)(F)F)c2)cc1 (stereo not drawn) the results were HIV Env fusion -11.
For O=C(O)c1cccc(C(=O)O)c1S(=O)Cc1ccccc1 (stereo not drawn) the results were HIV Env fusion -7.
For C[C@H]1CN([C@@H](C)CO)C(=O)c2ccccc2-c2ccccc2CO[C@H]1CN(C)C(=O)[C@H](Cc1ccccc1)N(C)C the results were HIV Env fusion 16[16.7 µM].
`C[C@H](O)[C@@H]1C(=O)N2CCc3c([nH]c4cccc(-c5ccccc5)c34)[C@@H]2C[C@@H]1N(C)C(=O)NC1CCCCC1` gave HIV Env fusion 61*.
Screening Cc1cc(N2CCN(C(=O)OC(C)(C)C)C[C@@H]2C)ccc1N1CCN(Cc2ccccc2)[C@H](C)C1 returned HIV Env fusion 17.
Cc1cc(C(=O)Nc2ccc3c(c2)C(=O)N(C)[C@@H]2CC[C@H](CC(=O)NCc4ccc(-c5ccccc5)cc4)O[C@@H]2CO3)no1 was read as HIV Env fusion -199[16.7 µM].
For CS(=O)(=O)Nc1ccc2c(c1)[C@@H]1C[C@@H](CC(=O)NCC3CC3)O[C@@H](CO)[C@@H]1O2 the results were HIV Env fusion -9[16.7 µM].
For C[C@@H]1CN([C@H](C)CO)C(=O)c2cc(N(C)C)ccc2O[C@@H]1CN(C)C(=O)NC1CCCCC1 the results were HIV Env fusion 9[16.7 µM].
Screening Cc1cc(Oc2cccnc2)ccc1NC(=O)Cc1cn(C)c2ccccc12 returned HIV Env fusion 6.
`C[C@@H]1CCCCO[C@@H](CN(C)C(=O)Nc2ccccc2)[C@@H](C)CN([C@@H](C)CO)C(=O)c2cc(NC(=O)CCC(F)(F)F)ccc2O1` gave HIV Env fusion -26[16.7 µM].
Screening CO[C@@H]1CC[C@@H]2CCOc3ccc(C#N)cc3C(=O)N(C)CCCC(=O)N(C)C[C@@H]1O2 returned HIV Env fusion 6[16.7 µM].
C[C@H]1CN([C@@H](C)CO)C(=O)c2cc(-c3cncnc3)cnc2O[C@H]1CN(C)Cc1ccc(Oc2ccccc2)cc1 was read as HIV Env fusion -4[16.7 µM].
CC(C)[C@H](NC(=O)c1ccc(Cl)c(Cl)c1)C(=O)N1CCC[C@H]1C(=O)NCCc1ccccc1Cl was read as HIV Env fusion -6.
CNC[C@@H]1OCCCC[C@H](C)Oc2ccc(NC(=O)NC3CCCCC3)cc2C(=O)N([C@@H](C)CO)C[C@H]1C was read as HIV Env fusion -11[16.7 µM].

4 structures out of the list, ordered by number of heavy atoms, ascending:
Screening Cc1cc(Oc2cccnc2)ccc1NC(=O)Cc1cn(C)c2ccccc12 returned HIV Env fusion 6.
Screening CO[C@@H]1CC[C@@H]2CCOc3ccc(C#N)cc3C(=O)N(C)CCCC(=O)N(C)C[C@@H]1O2 returned HIV Env fusion 6[16.7 µM].
For C[C@@H]1CN([C@H](C)CO)C(=O)c2cc(N(C)C)ccc2O[C@@H]1CN(C)C(=O)NC1CCCCC1 the results were HIV Env fusion 9[16.7 µM].
CNC[C@@H]1OCCCC[C@H](C)Oc2ccc(NC(=O)NC3CCCCC3)cc2C(=O)N([C@@H](C)CO)C[C@H]1C was read as HIV Env fusion -11[16.7 µM].
